# AmpC nodet inh – AmpC beta-lactamase inhibition, detergent-free assay | AID 585 | Potency, µM (series often up to 28.7 µM), for the others: top-dose activity change, negative = inhibition | hit rate 1.8% among 71,000 | AmpC nitrocefin hydrolysis, absorbance 480 nm, no detergent; potencies from a single point are estimates | P00811; active = falling curve, for most hits resting on a single point; inconclusive = weak or doubtful change; inactive = flat or rising curve; further: % of control where 0% means no effect; about half of the hits show no inhibition at the top dose; a quarter of the inactives give rising signals
# Target sequence (P00811 whole entry, looked up): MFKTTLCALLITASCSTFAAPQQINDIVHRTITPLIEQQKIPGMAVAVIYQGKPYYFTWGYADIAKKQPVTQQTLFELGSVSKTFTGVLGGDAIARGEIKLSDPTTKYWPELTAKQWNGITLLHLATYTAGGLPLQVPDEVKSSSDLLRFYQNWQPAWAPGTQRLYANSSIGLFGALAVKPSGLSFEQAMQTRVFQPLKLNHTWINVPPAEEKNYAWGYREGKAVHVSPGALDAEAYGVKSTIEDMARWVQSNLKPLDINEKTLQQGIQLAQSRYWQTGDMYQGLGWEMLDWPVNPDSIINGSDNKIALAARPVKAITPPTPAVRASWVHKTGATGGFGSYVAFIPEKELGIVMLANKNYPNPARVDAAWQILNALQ
#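 AmpC, 20 mM phosphate pH 7.0; 15 min cpd preinc, RT; start with nitrocefin (800 uM stock); A480 kinetic read, 20 s intervals, 4 min. No-enzyme wells = negative control.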
# The depositor's hits bear a star; & = joins results of further samples; [ ] = remark or other dose. Potency means the concentration at half of the fitted maximal effect. A portion of the library; rates above refer to the full screens.
# The first 5 entries, to show the layout:
smiles | AmpC nodet inh
Cc1onc(-c2ccccc2)c1C(=O)N1CCN(C/C=C/c2ccccc2)CC1 | 158%
Cc1ccc(C)c(C(C)NC(=O)C2C3CCC(O3)C2C(=O)O)c1 (centres undefined) | -12%
CC(C)Cn1c(N)c(S(=O)(=O)c2cccs2)c2nc3ccccc3nc21 | -23%
CCc1ccc2[nH]cc(C(=O)OCCOC)c(=O)c2c1 | 0%
C=C(C)Cn1c(CCNC(=O)CC)nc2ccccc21 | -3%

# All compounds of this part, previewed entries included:
smiles | AmpC nodet inh
Cc1onc(-c2ccccc2)c1C(=O)N1CCN(C/C=C/c2ccccc2)CC1 | 158%
Cc1ccc(C)c(C(C)NC(=O)C2C3CCC(O3)C2C(=O)O)c1 (centres undefined) | -12%
CC(C)Cn1c(N)c(S(=O)(=O)c2cccs2)c2nc3ccccc3nc21 | -23%
CCc1ccc2[nH]cc(C(=O)OCCOC)c(=O)c2c1 | 0%
C=C(C)Cn1c(CCNC(=O)CC)nc2ccccc21 | -3%
COc1ccc(-c2noc(CCCC(=O)NCCc3ccccc3)n2)cc1OC | 104%
COc1cc2c(cc1OC)CN(C(=O)CSc1nc(N)c(C#N)cc1C#N)CC2 | 30%
CCc1c(C)nc(N)n2c(SCC(=O)N3CCN(c4ccccc4OC)CC3)nnc12 | 27%
CC1=[N+]([O-])C(N2CCOCC2)C(O)(c2ccccc2)C1 (centres undefined) | 8%
CC(C)NS(=O)(=O)c1ccc(OCC(=O)Nc2ccc3c(c2)OCCO3)cc1 | 4%
COc1ccccc1OCC(=O)N(Cc1nc(-c2ccc(Cl)cc2)no1)C(C)C | 160%
COC(=O)C(Cc1cnc[nH]1)NC(=O)C1CCC(=O)N1 (centres undefined) | -1%
CCOc1nc(-c2ccc(C)cc2)ccc1-c1noc(COC)n1 | 56%
O=C(O)CN1C(=O)CSc2ccccc21 | -2%
FC(F)(F)c1cccc(N2Cc3ccccc3C2)c1 | -3%
Cc1ccc(C(=O)Nc2ccccc2N2CCN(C(=O)C(C)C)CC2)cc1 | 58%
Cc1nc2ccccc2c(=O)n1/N=C/c1ccncc1 | 0%
CCOc1ccc(-n2nnc3c(=O)n(CC(=O)c4ccccc4)cnc32)cc1 | 13%
CCc1nnc(NC(=O)CSc2nnc(-c3c[nH]c4ccccc34)n2CC)s1 | 3%
O=C(COC(=O)C1CCCN1C(=O)c1cccs1)c1ccccc1 (centres undefined) | 6%
CC[C@@]12CCCN3CC[C@@]4(c5ccc(OC)c(O)c5N(C(C)=O)[C@H]4CC1)[C@H]32 | 10%
CCN1CCN(c2ncnc3ccc(Br)cc23)CC1 | -8%
COc1cc(C(=S)N2CCC(C(N)=O)CC2)ccc1O | 1%
C=CP(=O)(O)c1ccccc1 | -6%
CCOC(=O)C1=C(C)NC(C)=C(C(=O)OCC)C1c1ccc(O)cc1 | 14%
CCCS(=O)(=O)N1CCC(C(=O)NCCCOCC)CC1 | -6%
Cc1ccc2nc(C3CCN(CC(=O)Nc4ccc5c(c4)OCCO5)CC3)[nH]c2c1 | 25%
Cc1c(N2CCCC2)cc2c(c1NC(=O)c1ccccc1Cl)C(C)(C)CC2(C)C | 6%[5.75 µM]
COC(=O)c1ccc(CSc2nnc(-c3ccncc3)o2)o1 | 3%
Cc1nc(SCC(=O)c2c[nH]c3ccccc23)n[nH]1 | -10%
COc1ccccc1C(=O)N1CCN=C1c1ccccc1 | 7%
CCOC(=O)C1=C(c2ccccc2)N(C)C(=O)NC1c1ccc(O)c(OC)c1 (centres undefined) | 19%
CCn1c(SCc2nc(CC(=O)Nc3ccccc3OC)no2)nnc1-c1cccs1 | 26%
O=C(O)c1ccc2c(c1)CC(c1ccccc1)OC2=O (centres undefined) | 1%
Cc1cccc(NC(=O)c2ccccc2NC(=O)C(C)(C)C)n1 | 21%
CCN(CC)S(=O)(=O)c1ccc(NC(=O)C(OC)c2ccccc2)cc1 (centres undefined) | 6%
Cc1ccc(-c2nn(-c3ccccc3)cc2CN(Cc2ccccc2)C(=O)CCC(=O)O)o1 | 57%
O=C(Cn1c(=O)n(CC2CCCO2)c(=O)c2ccccc21)c1ccccc1 (centres undefined) | 32%
NS(=O)(=O)c1ccc(NC(=O)Nc2cccc3ccccc23)cc1 | -18%[5.75 µM]
COc1ccc(-n2nc3c(c2NC(=O)c2cc4ccccc4oc2=O)CS(=O)(=O)C3)cc1 | 28%
Cc1c(NC(=O)CSc2nc(-c3ccco3)cc(C(F)(F)F)n2)c(=O)n(-c2ccccc2)n1C | 71%
COCCCn1c2nc3ccccc3nc2c2c(=O)n(Cc3ccc(Cl)cc3)cnc21 | 73%
CC(=O)N1CCN(CC(O)COc2ccc(OCc3ccccc3)cc2)CC1 (centres undefined) | 110%
Cc1nc2sc(C(c3cccs3)N3CCN(c4cccc(Cl)c4)CC3)c(O)n2n1 (centres undefined) | 60%
O=C(Nc1ccccc1O)c1ccc(Cl)cc1 | -7%

# Four entries from above in another layout.
structure: Cc1nc2sc(C(c3cccs3)N3CCN(c4cccc(Cl)c4)CC3)c(O)n2n1 (centres undefined)
  AmpC nodet inh: 60%

structure: CCn1c(SCc2nc(CC(=O)Nc3ccccc3OC)no2)nnc1-c1cccs1
  AmpC nodet inh: 26%

structure: CCN(CC)S(=O)(=O)c1ccc(NC(=O)C(OC)c2ccccc2)cc1 (centres undefined)
  AmpC nodet inh: 6%

structure: CCOC(=O)C1=C(c2ccccc2)N(C)C(=O)NC1c1ccc(O)c(OC)c1 (centres undefined)
  AmpC nodet inh: 19%

# Next results follow.
smiles | AmpC nodet inh
CCN(CC(=O)NC(C)C)C(=O)CCNC(=O)c1ccc(Cl)cc1 | 2%
CCOC(=O)Cc1csc(NC(=O)Nc2ccccc2)n1 | -10%
COc1ccc(S(=O)(=O)N(CCCN2CCCC2=O)Cc2cc3c(C)ccc(C)c3[nH]c2=O)cc1 | 124%
NS(=O)(=O)c1ccc(CCNC(=O)NC2(C(F)(F)F)Oc3ccccc3O2)cc1 | 1%
Cc1ccc(S(=O)(=O)N(CC(=O)NCc2ccco2)Cc2ccccc2F)cc1 | 33%
CCN1C(=O)/C(=C2/SC(C)=C(C)N2CC)SC1=S | 17%
Cc1ccc(CN2C(=O)CCC2C(=O)NCCCN2CCCC(C)C2)cc1 (centres undefined) | -12%
O=S(=O)(NCc1ccc2c(c1)OCO2)c1cccc2nsnc12 | -16%
CN1CCN(C(=O)c2c(O)c3cccc4c3n(c2=O)CCC4)CC1 | -4%
CCOC(=O)C1=C(C)Nc2ncnn2C1c1ccc(N(C)C)cc1 (centres undefined) | 7%
COC(=O)c1ccc(NC(=O)C2CCCN(S(=O)(=O)c3cnc[nH]3)C2)cc1 (centres undefined) | -5%
O=C(CCn1c(=S)[nH]c2ccccc2c1=O)N1CCN(c2ccccn2)CC1 | 4%
CC(C)CN1CCC2(CC1)CCN(S(C)(=O)=O)CC2 | 1%
CCOC(=O)c1cccc(Nc2nc(C)cc(C)n2)c1 | 59%
N#CCCN1CCN(S(=O)(=O)c2ccc(S(=O)(=O)NC3CC3)cc2)CC1 | 18%
CCCn1c(SCC(=O)Nc2ccccc2CC)nnc1C(C)C | 14%
CCCCSc1nnc([C@H](CC(C)C)NC(=O)OC(C)(C)C)o1 | 18%
CCOC(=O)C1CCCN(c2ccc(NC(=O)c3snc4c(=O)[nH]cnc34)cc2)C1 (centres undefined) | 23%
COc1nnc(-c2ccc(C(=O)N3C[C@@H]4C[C@H](C3)c3cccc(=O)n3C4)cc2)c2ccccc12 | 31%
CCC(Sc1ncccc1C(=O)O)C(=O)N1CCOCC1 (centres undefined) | -6%
COc1ccc(Cl)cc1S(=O)(=O)N1CCN(C(=O)COc2ccccc2)CC1 | 104%
O=C(O)Cc1ccccc1C(=O)O | 2%
CC(C)Sc1oc(-c2ccco2)nc1S(=O)(=O)c1ccc(F)cc1 | -19%
CN(C)c1ncnc2c1ncn2CCn1cnc2c(N(C)C)ncnc21 | 2%[5.75 µM]
CCOC(=O)c1c2n(c3c(NCc4ccccc4)ncnc13)CCCC2 | 37%
CCOC(=O)C(NCCCO)c1ccccc1 (centres undefined) | -20%
COc1cccc(CN(Cc2ccco2)C(c2ccc(F)cc2)c2nnnn2C(C)(C)C)c1 (centres undefined) | 7%
CCOC(=O)C1CCCN(Cc2c(F)cccc2Cl)C1 (centres undefined) | 16%
CCOC(=O)C(CC)n1nc(C)n2c(cc3sccc32)c1=O (centres undefined) | 25%
O=C(Cn1nnc(-c2ccc(Cl)cc2)n1)NCC1CCCCC1 | -18%

# A draw from above in order of length of the SMILES, lowest first:
smiles | AmpC nodet inh
O=C(O)Cc1ccccc1C(=O)O | 2%
CC(C)Sc1oc(-c2ccco2)nc1S(=O)(=O)c1ccc(F)cc1 | -19%
COc1cccc(CN(Cc2ccco2)C(c2ccc(F)cc2)c2nnnn2C(C)(C)C)c1 (centres undefined) | 7%

# The results go on:
smiles | AmpC nodet inh
COc1ccc(-c2nc(N)n(C(C)=O)n2)cc1 | -3%
Cc1ccc(N2C(=O)[C@@H]3Cc4ccccc4CN3C2=O)cc1 | 2%
CC(C)c1cccc2nc3c(c([Si](C)(C)C(C)(C)C)c12)Cn1c-3cccc1=O | 104%
Cc1cc(C)c(/C=C2/C(=O)Nc3ccccc32)[nH]1 | -2%
N=C(N)n1cc(/C=N\N=C(N)N)cn1 | -1%[5.75 µM]
CC(=O)NC(CCS(C)(=O)=O)C(=O)Nc1cccc(C)c1 (centres undefined) | 5%
COc1cc(C2=Nc3c(c(C)nn3-c3ccccc3)P(=O)(N3CCOCC3)O2)cc(OC)c1OC (centres undefined) | 79%
CCCOc1cccc(C(=O)Nc2nnn(CCC)n2)c1 | 4%
Cc1ccc(N(CC(N)=O)C2SC(=O)NC2=O)cc1 (centres undefined) | -6%
c1ccc(CSc2nnc3c4ccccc4c4ccccc4c3n2)cc1 | -2%[5.75 µM]
CC1CC(C)CN(c2oc(-c3ccccc3Cl)nc2C#N)C1 (centres undefined) | -20%
CC(C)(C)OC(=O)NC(CCCCNC=O)C(=O)O (centres undefined) | -8%
O=C(CS(=O)(=O)c1ccccc1)N1CCCCCC1 | -4%
CCOC(=O)c1c(C)c(C(=O)N2CCc3ccccc3C2)c(C)n1CC | 94%
C[C@H](N)Cc1c[nH]c2ccc(O)cc12 | 12%&0%

# Look-ups from above.
# Cc1ccc(N2C(=O)[C@@H]3Cc4ccccc4CN3C2=O)cc1 | AmpC nodet inh = 2%
# COc1cc(C2=Nc3c(c(C)nn3-c3ccccc3)P(=O)(N3CCOCC3)O2)cc(OC)c1OC (centres undefined) | AmpC nodet inh = 79%

# (further entries)
SMILES	AmpC nodet inh
N#CCCN1CCN(Cc2cc(-c3ccccc3)ccc2O)CC1	55%
COc1ccc(CC(=O)Nc2ccc3c(c2)OCO3)cc1S(=O)(=O)N1CCOCC1	-3%
Cc1cc(NC(=O)CSc2nc(-c3cccs3)cc(C(F)(F)F)n2)no1	-25%
CC(=O)NCc1ccc(C(=O)CSc2nnc(-c3ccncc3)n2Cc2ccccc2)o1	74%
COc1ccc(C(=O)Cn2nnc(-c3ccccc3NC(=O)c3ccco3)n2)cc1	-6%
COC(=O)c1[nH]c2cc(OC)c(OC)cc2c1NC(=O)c1cccc(OC)c1	118%
COc1ccc(Cc2nn3c(-c4cc(OC)c(OC)c(OC)c4)nnc3s2)cc1	96%
O=C(Nc1nc2ccccc2n1Cc1ccccc1)c1ccco1	10%
O=C(COc1ccc(S(=O)(=O)N2CCOCC2)cc1)NC1CCCC1	22%
CCCCCCn1c(CN2CCCCC2CC)nc2c1c(=O)n(C)c(=O)n2C (centres undefined)	22%
c1cc(CN2CC3(CCNCC3)C2)ccn1	-11%
CCOc1ccccc1NC(=O)Cn1nnc(-c2ccc(OCC)c(OCC)c2)n1	34%
Cc1nc2cc(NC(=O)N(C)c3ccc4ccccc4c3)ccc2o1	60%
COc1ccc(N(CC(=O)NC2CCCCCCC2)S(=O)(=O)c2c(C)nn(C)c2C)cc1	77%
COc1ccc(N2CCN(C(=O)CSc3nnc(COc4cccc5cccnc45)o3)CC2)cc1	82%
Cc1cccc(N2CCN(c3nc4ccccc4n4cnnc34)CC2)c1C	1%
Cc1ccccc1-n1c(SCC(=O)N2CCCC2)nnc1-c1ccccn1	21%
CN(C)C(=O)N1CCCC(C(=O)NCc2cccs2)C1 (centres undefined)	-7%
CC(C)OC(=O)CCCCCN1C(=O)CSC1=S	5%
Cc1cnc(N)c2c(=O)oc3ccccc3c12	11%
O=C(NCc1ccc(Cl)cc1)c1cccnc1	4%
Nc1nnc(Cc2c[nH]c3ccccc23)s1	-11%
CCC(=O)Nc1cc(-c2nn(C)c(=O)c3ccccc23)ccc1OC	26%
O=C1CC(N2CCN(CCc3ccccn3)CC2)C(=O)N1c1ccc(Cl)cc1 (centres undefined)	16%
N#Cc1nc(-c2ccccc2Cl)oc1NCc1ccco1	-9%
Cc1cc(N2CCN(C)CC2)nc(N2CCOCC2)n1	1%
COC(=O)c1ccc(CC(=O)c2c(C)cc(O)cc2O)o1	-6%
CCCC/C=C/C(NC(=O)c1ccccc1)c1ccccc1 (centres undefined)	-13%
CN(C)CCCNC(=O)CCC1CCCCC1	6%
COc1ccccc1-c1ccc2ncnc(N(C)Cc3ccco3)c2c1	83%
COc1ccccc1N1CCN(C(=O)COc2ccc(Cl)cc2Br)CC1	139%
CN1[C@@H]2CC[C@H]1CC(O[C@@H](c1ccccc1)c1ccccc1N)C2 (some centres undefined)	11%
C=CCn1c(O)c(C(C)=NCCCO)c(=O)[nH]c1=O	1%
Cc1ccc(Nc2nc(N)nc(CN3CCN(C(=O)c4ccco4)CC3)n2)cc1Cl	120%
CCOC(=O)C(NC(=O)c1ccccc1)(N1CCOCC1)C(F)(F)F (centres undefined)	1%
O=C(O)CC(C(=O)OC1CCCCC1)N1CCOCC1 (centres undefined)	2%
